VCAM-1 rise: enhancers of VCAM-1 display on endothelial cells, cell-based, plate reader, pooled HUVEC, TNFa stimulus (AID 455) | HUVEC TNFa-induced VCAM-1 immunofluorescence, plate reader; numbers were filed only for top-ranked candidate wells | augmentation, % at 5 µM | hit rate 0.2% among 10,000;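 active means a compound raising TNF-alpha-driven VCAM-1 surface staining, with its hit status upheld on visual or statistical review; inactive means the rest, including hits rejected on review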;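 further: 0% = TNFa with vehicle and 100% = strongest image-checked hit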
26S disassembly: inhibitors of ATP-driven 26S proteasome dissociation, primary screen, biochemical, bead-based flow cytometry, GFP-tagged proteasome. anti-FLAG beads, GFP-proteasome disassembly. inhibition of disassembly, % (concentration not given with the values). hit rate 0.2% among 24,000. AID 751, 2007;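 active means above 40%; inconclusive means likely self-fluorescent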;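 further: plate controls were ATP control with full disassembly for no effect and ATP-gamma-S intact proteasomes for full effect; higher percent means more bead fluorescence retained so stronger block of disassembly; stock transfer was 100 nL into about 10 µL; wells with too few beads may also be inconclusive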
* marks the source's active call; other numbers are inactive results. Not all compounds are listed; count on the stated rates, not on these rows.

What do the screens show for `O=C(CSc1nc(-c2ccccc2)cs1)NCc1ccco1`?
VCAM-1 rise: inactive; 26S disassembly: -0.5

Results for Cc1cc(NC(=O)NC(=O)c2ccc(F)cc2F)n[nH]1 ?
26S disassembly: -1.8

Results for COC(=O)c1ccc(-c2ccco2)n1Cc1nc(-c2ccc(OC)c(OC)c2)oc1C ?
VCAM-1 rise: inactive; 26S disassembly: -5.2

How did CCN(CC)CCCN1C(=O)C(=O)/C(=C(/O)c2ccccc2)C1c1ccccn1 (configuration not stated) do in these assays?
VCAM-1 rise: inactive; 26S disassembly: inconclusive

Results for CCOC(=O)N1CCN(C(=O)CCn2nc(-c3ccc(Cl)cc3)ccc2=O)CC1 ?
26S disassembly: 0.4

Results for Cc1ccc(Nc2cc(C)nc3nc(C)nn23)c(C)c1 ?
26S disassembly: -0.1

Results for CC1(C)CC(=O)C(CC(=O)NC(=O)NCc2ccccc2)=C(O)C1 ?
VCAM-1 rise: inactive; 26S disassembly: -0.7

What do the screens show for `NCCCC(=O)N1c2ccccc2Sc2ccccc21`?
26S disassembly: 2.1

Results for Cc1[nH]c(-c2ccco2)nc1C(=O)O ?
26S disassembly: 0.0

How did COc1ccc(N(CC(=O)Nc2ccc3c(c2)OCCO3)S(=O)(=O)c2cccnc2)cc1 do in these assays?
VCAM-1 rise: inactive; 26S disassembly: 0.8

Results for O=C(CCC1CCCC1)c1c(O)c2ccccc2oc1=O ?
26S disassembly: -0.3

What do the screens show for `CC(=O)[C@@]1(O)CC[C@H]2[C@@H]3C[C@H](C)C4=CC(=O)C=C[C@]4(C)[C@@]3(F)[C@@H](O)C[C@@]21C`?
VCAM-1 rise: inactive; 26S disassembly: 0.2

Results for COc1ccc(CCNC(=O)C2CCN(C(=O)N(C)C)CC2)cc1OC ?
VCAM-1 rise: inactive; 26S disassembly: 0.5

How did COc1cc2[nH]c(=O)n(CCCCCC(=O)NCCCN3CCOCC3)c(=O)c2cc1OC do in these assays?
26S disassembly: 0.9

Results for CCS(=O)(=O)Nc1ccc(C(=O)CC2(O)C(=O)Nc3ccccc32)cc1 (configuration not stated) ?
VCAM-1 rise: inactive; 26S disassembly: -0.2

How did Cc1cccc(-n2c(C)nc3c(cnn3-c3ccc(F)cc3)c2=O)c1 do in these assays?
26S disassembly: -1.3

What do the screens show for `COc1ccccc1NC(=O)C1=C(C)Nc2nc(CCCO)nn2C1c1cccnc1` (configuration not stated)?
VCAM-1 rise: inactive; 26S disassembly: 0.4

How did CN=c1sc2ccccc2n1CC(O)COCc1ccco1 (configuration not stated) do in these assays?
VCAM-1 rise: inactive; 26S disassembly: -2.0

What do the screens show for `O=S(=O)(Cc1ccccc1)/C1=C(\N2CCOCC2)CCCCCC1`?
26S disassembly: 2.4

What do the screens show for `Cc1cc(=O)[nH]c(SCc2cc(=O)n3nc(C)sc3n2)n1`?
26S disassembly: -2.3

What do the screens show for `COc1ccccc1N1C(N)=NC(N)=NC1(C)C`?
26S disassembly: 0.0

How did Cc1cccc(C(=O)N2CCN(C(=O)c3cccc(C)c3)C(C)C2)c1 (configuration not stated) do in these assays?
VCAM-1 rise: inactive; 26S disassembly: 0.2

What do the screens show for `COc1ccc(S(=O)(=O)N2CCC(C(=O)Nc3c(F)cccc3F)CC2)cc1`?
VCAM-1 rise: inactive; 26S disassembly: 2.6

Results for OCCSc1nnc(Nc2ccccc2)s1 ?
26S disassembly: 0.4

What do the screens show for `O=C(CCN1C(=O)COc2ccccc21)NCCC1=CCCCC1`?
26S disassembly: -0.5

What do the screens show for `CC(NC(=O)Cc1cccs1)c1ccc2c(c1)OCO2` (configuration not stated)?
VCAM-1 rise: inactive; 26S disassembly: -0.8

What do the screens show for `Cc1nn(-c2ccc(F)cc2F)c2c1-c1nc(N3CCCC3)ncc1CC2`?
26S disassembly: 0.8

How did COC(=O)c1ccsc1NC(=O)CN1C(=O)CCC1=O do in these assays?
VCAM-1 rise: inactive; 26S disassembly: 3.3

How did CCc1nc(N[C@@H](Cc2c[nH]c3ccccc23)C(=O)O)c2oc3ccccc3c2n1 do in these assays?
VCAM-1 rise: inactive; 26S disassembly: 2.9

Results for Cc1nc2ccc(S(=O)(=O)NC(C(=O)NC3CCCC3)C(C)C)cc2s1 (configuration not stated) ?
26S disassembly: 0.6

How did CCOC(=O)c1sc(N2C(=O)C(O)=C(C(=O)c3ccco3)C2c2ccccc2)nc1C (configuration not stated) do in these assays?
VCAM-1 rise: inactive; 26S disassembly: 1.8

How did O=C(CCn1c(=O)sc2ccccc21)Nc1nccs1 do in these assays?
VCAM-1 rise: inactive; 26S disassembly: 0.5

What do the screens show for `CC(=O)COC(=O)c1cccc(N2C(=O)C3C4C=CC(C4)C3C2=O)c1` (configuration not stated)?
26S disassembly: -1.0

How did COc1ccc(O)c(C2NC(CC(C)C)(C(=O)O)C3C(=O)N(Cc4ccccc4)C(=O)C23)c1 (configuration not stated) do in these assays?
26S disassembly: -0.7

How did Cc1ccc(NC(=O)C2C3C=CC4(CN(Cc5cccnc5)C(=O)C24)O3)cc1F (configuration not stated) do in these assays?
26S disassembly: -0.3

Results for c1ccc(CNC2=NCCCC2)cc1 ?
26S disassembly: 0.1

Gathered by group: those above containing an aryl thioether with sulfur outside any ring
What do the screens show for `O=C(CSc1nc(-c2ccccc2)cs1)NCc1ccco1`?
VCAM-1 rise: inactive; 26S disassembly: -0.5

What do the screens show for `Cc1cc(=O)[nH]c(SCc2cc(=O)n3nc(C)sc3n2)n1`?
26S disassembly: -2.3

Results for OCCSc1nnc(Nc2ccccc2)s1 ?
26S disassembly: 0.4

Next entries.
How did CC1=C(C(=O)NCc2ccc3c(c2)OCO3)C2(CCC(C)CC2)OC1=O (configuration not stated) do in these assays?
26S disassembly: 1.0

How did O=C(NCC1CCCO1)c1sc(=S)n2c1[nH]c(=O)c1ccc(C(=O)N3CCCCC3)cc12 (configuration not stated) do in these assays?
26S disassembly: -0.2

How did CCOc1ncccc1C(=O)OCC(=O)N1CC(=O)Nc2ccccc21 do in these assays?
VCAM-1 rise: inactive; 26S disassembly: -0.3

Results for C=C(C)COc1ccc(-c2nc(N)ncc2-c2ccc(OC)cc2)c(O)c1 ?
VCAM-1 rise: inactive; 26S disassembly: -1.3

How did CC1(C)CC(=O)c2cc(OCC(=O)NCCCN3CCN(c4ccc(F)cc4)CC3)ccc2O1 do in these assays?
26S disassembly: 0.7

How did O=C(NC1CCCC1)c1sc(=S)n2c1[nH]c(=O)c1ccccc12 do in these assays?
26S disassembly: -0.7

How did CCOC(=O)c1ccc(-n2c(N)c(C(=O)NCc3ccco3)sc2=S)cc1 do in these assays?
26S disassembly: -3.0

How did CCOc1ccc(-n2cc(C(=O)N3CCC(C)CC3)c3cc(OC)c(OC)cc3c2=O)cc1 do in these assays?
26S disassembly: -0.8

Results for COc1ccc(S(=O)(=O)Cc2ccc(C(=O)N3CCN(c4cc(Cl)ccc4C)CC3)o2)cc1 ?
26S disassembly: 1.2

How did CCOC(=O)N1CCC(NC(=O)C2CCC(Cn3c(=O)[nH]c4ccccc4c3=O)CC2)CC1 (configuration not stated) do in these assays?
VCAM-1 rise: inactive; 26S disassembly: 5.1

How did C(=N/n1c2ccccc2c2ccccc21)/c1ccco1 do in these assays?
VCAM-1 rise: inactive; 26S disassembly: -0.1

What do the screens show for `O=C(O)c1cccc(N2C(=O)C3CC=C(Cl)CC3C2=O)c1` (configuration not stated)?
26S disassembly: -0.4

Taken from the listing, 6 compounds:
How did O=C(NCC1CCCO1)c1sc(=S)n2c1[nH]c(=O)c1ccc(C(=O)N3CCCCC3)cc12 (configuration not stated) do in these assays?
26S disassembly: -0.2

How did CCOc1ncccc1C(=O)OCC(=O)N1CC(=O)Nc2ccccc21 do in these assays?
VCAM-1 rise: inactive; 26S disassembly: -0.3

Results for C=C(C)COc1ccc(-c2nc(N)ncc2-c2ccc(OC)cc2)c(O)c1 ?
VCAM-1 rise: inactive; 26S disassembly: -1.3

How did CC1(C)CC(=O)c2cc(OCC(=O)NCCCN3CCN(c4ccc(F)cc4)CC3)ccc2O1 do in these assays?
26S disassembly: 0.7

How did O=C(NC1CCCC1)c1sc(=S)n2c1[nH]c(=O)c1ccccc12 do in these assays?
26S disassembly: -0.7

How did CCOC(=O)c1ccc(-n2c(N)c(C(=O)NCc3ccco3)sc2=S)cc1 do in these assays?
26S disassembly: -3.0

The results go on:
How did Cn1c(SCc2ccc3c(c2)OCO3)nnc1-c1ccccc1 do in these assays?
VCAM-1 rise: inactive; 26S disassembly: -2.0

How did Cc1ccc(CCNC(=O)C2CCCN(S(=O)(=O)c3cnc[nH]3)C2)cc1 (configuration not stated) do in these assays?
VCAM-1 rise: inactive; 26S disassembly: 1.2

How did CN1CCN(C(=O)C2CCN(S(=O)(=O)c3cnc[nH]3)CC2)CC1 do in these assays?
26S disassembly: -0.4

What do the screens show for `Cc1ccc2c(c1)CCCN2C(=O)Nc1ccc2c(c1)OCO2`?
VCAM-1 rise: inactive; 26S disassembly: -1.5

What do the screens show for `Clc1ccccc1C1CC(c2ccccc2)Nc2ncnn21` (configuration not stated)?
26S disassembly: 0.6

Results for CON(C)c1nc(Oc2ccc(=O)[nH]n2)nc(N(C)C)n1 ?
VCAM-1 rise: inactive; 26S disassembly: 0.2

How did CC(=O)C1C(c2ccncc2)NC(=O)NC1(O)C(F)(F)F (configuration not stated) do in these assays?
26S disassembly: 0.2

Results for Cc1ccccc1-n1c(SCc2ccccn2)nc2n[nH]c(C)c2c1=N ?
26S disassembly: 1.2

Results for COC(=O)c1ccccc1OCC(=O)NC1CCCCC1 ?
VCAM-1 rise: inactive; 26S disassembly: -1.8

Results for Cc1ccc(S(=O)(=O)c2cc3c(=O)n4ccccc4nc3n(CC3CCCO3)c2=N)cc1C (configuration not stated) ?
VCAM-1 rise: inactive; 26S disassembly: 0.1

What do the screens show for `CSCCC(NC(=O)C1CCC(C)CC1)C(=O)N1CCN(c2ccccn2)CC1` (configuration not stated)?
26S disassembly: -1.1

How did COc1ccc(CCNC(=O)CCNS(=O)(=O)c2cccc3nsnc23)cc1OC do in these assays?
26S disassembly: 0.1

Results for COC(=O)c1ccc(-c2ccc(CNCC(O)c3ccccc3)o2)cc1 (configuration not stated) ?
VCAM-1 rise: inactive; 26S disassembly: -3.0

How did CCN(CC)c1ccc(NC(=O)Cn2cc3c(n2)CCC(C)C3)c(C)c1 (configuration not stated) do in these assays?
26S disassembly: -0.5

How did O=C(NCCc1c[nH]c2ccccc12)C1CCN(c2nnc(N3CCCC3=O)s2)CC1 do in these assays?
26S disassembly: 21

Results for COc1cccc(-n2c(CNc3ccc(F)cc3)nnc2SCC(N)=O)c1 ?
VCAM-1 rise: inactive; 26S disassembly: -1.6

What do the screens show for `CCOc1ccc(C2C(C(=O)Nc3ccc(F)cc3)=C(C)Nc3nc(CCCO)nn32)cc1` (configuration not stated)?
26S disassembly: 1.3

How did CCOC(=O)Nc1ccc(S(=O)(=O)NCc2ccccc2)cc1 do in these assays?
26S disassembly: -2.1

How did O=C1c2ccccc2CN1CCNS(=O)(=O)c1ccc(Cl)cc1 do in these assays?
VCAM-1 rise: inactive; 26S disassembly: 2.2

What do the screens show for `CC(C)Cn1c(=O)c(C(=O)Nc2ccccc2S(N)(=O)=O)c(O)c2ccccc21`?
VCAM-1 rise: inactive; 26S disassembly: -0.8

Results for Cc1nn(Cc2ccc(Cl)c(Cl)c2)c(C)c1NC(=O)c1cc(-c2ccco2)on1 ?
26S disassembly: 0.6

Results for CC(C)(C)OC(=O)NC(CCNC=C1C(=O)OC(C)(C)OC1=O)C(=O)O (configuration not stated) ?
VCAM-1 rise: inactive; 26S disassembly: -1.2

Results for CS(=O)(=O)N1CCN(C(=O)c2ccc(-c3ccccc3)cc2)CC1 ?
VCAM-1 rise: inactive; 26S disassembly: -0.6

How did CNC(=O)Nc1cc(C(C)(C)C)no1 do in these assays?
26S disassembly: -0.8

Results for CCC(C)NC(=O)Cn1cnc2sc(C)cc2c1=O (configuration not stated) ?
26S disassembly: -1.6

How did O=C1c2ccccc2C(O)(Cc2ccccc2)N1CCCN1CCOCC1 (configuration not stated) do in these assays?
26S disassembly: -2.3

What do the screens show for `CC1CC(C)CN(CCCn2c(=S)[nH]c3ccccc3c2=O)C1` (configuration not stated)?
26S disassembly: -0.2

What do the screens show for `CC(CN(C)Cc1ccccc1)OC(=O)c1ccc2c(c1)OCCO2` (configuration not stated)?
VCAM-1 rise: inactive; 26S disassembly: 0.6

What do the screens show for `O=C(Nc1nc(-c2ccncc2)cs1)c1ccc(S(=O)(=O)N2CCOCC2)cc1`?
26S disassembly: -1.4

What do the screens show for `CN(C)c1cc(O)c(C(=S)Nc2ccccc2)c(N(C)C)c1`?
26S disassembly: -0.3

How did Oc1c(I)cc(I)c2cccnc12 do in these assays?
VCAM-1 rise: inactive; 26S disassembly: 0.1

How did Cc1cc(C(=O)COC(=O)c2n[nH]c3ccccc23)c(C)n1C do in these assays?
VCAM-1 rise: inactive; 26S disassembly: 3.4

What do the screens show for `Cc1ccc(CS(=O)(=O)Cc2ccc(C(=O)NCc3ccco3)o2)cc1`?
26S disassembly: -0.3

Results for COCCCNC(=O)C1CC(=O)N(C2CCCC2)C1 (configuration not stated) ?
26S disassembly: 0.0

How did O=c1c2c3c(sc2nc2sc(C4CC4)nn12)CCCC3 do in these assays?
VCAM-1 rise: inactive; 26S disassembly: -3.4

Results for CCc1ccc(Nc2cc(C)nc3nc(C)nn23)cc1 ?
26S disassembly: 0.5

How did Oc1c(C(c2ccccc2)N2CCc3ccccc3C2)sc2ncnn12 (configuration not stated) do in these assays?
VCAM-1 rise: inactive; 26S disassembly: -1.2

What do the screens show for `Cc1ccc2c(c1)N(CC(=O)NC1CCCCC1C)C(=O)CO2` (configuration not stated)?
26S disassembly: 0.9

Screens as filed in PubChem BioAssay.
